# FGF22 binding: shifts melting point of recombinant human FGF22. recombinant FGF22 thermal shift, SYPRO orange fluorescence; percent of sucrose octasulfate shift, DMSO zero. AID 651658. 340,000 compounds, 1.5% hits. calls only at 9.99 µM. Q9HCT0;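 active means melting point raised past a set limit in the mean and every replicate; three in four hits are not shown here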
# Target sequence (Q9HCT0 whole entry, looked up): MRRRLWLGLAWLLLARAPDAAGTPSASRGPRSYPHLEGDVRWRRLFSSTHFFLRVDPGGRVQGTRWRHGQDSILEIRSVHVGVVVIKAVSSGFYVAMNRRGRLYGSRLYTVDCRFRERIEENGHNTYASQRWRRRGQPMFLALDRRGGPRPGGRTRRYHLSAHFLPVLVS
# Ecoli rRNA inh: selective bacterial rRNA inhibition in E. coli; E. coli WT GFP vs humanized-ribosome RFP mutants, fluorescence, 24 h; active compounds read low; DMSO median 0, no signal -100; GFP signal change (wild-type ribosome), % (concentration not given with the values); 350,000 compounds, 1.6% hits;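 active means significant combined selectivity score with lowered wild-type GFP, culture density cut under 30%, mutant RFP and density less affected; inactive means any of these conditions unmet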; further: one replicate is shown; some compounds called inactive have numbers as strong as hits
# MLL AF4-AF9 inh: MLL-AF4/AF9 protein interaction inhibition. AlphaScreen, biotin-AF4 peptide binding to FLAG-AF9. inhibition, % at 10 µM. 350,000 compounds, 0.47% hits. P42568;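 active means every replicate reaching a set inhibition limit, whatever the replicate mean, cut at about 25% in these data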;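 further: 0% = plate neutral control median and 100% = total signal loss; the record names both 10 and 1 µM as test concentration; the first replicate is given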
# Target sequence (P42568 whole entry, looked up): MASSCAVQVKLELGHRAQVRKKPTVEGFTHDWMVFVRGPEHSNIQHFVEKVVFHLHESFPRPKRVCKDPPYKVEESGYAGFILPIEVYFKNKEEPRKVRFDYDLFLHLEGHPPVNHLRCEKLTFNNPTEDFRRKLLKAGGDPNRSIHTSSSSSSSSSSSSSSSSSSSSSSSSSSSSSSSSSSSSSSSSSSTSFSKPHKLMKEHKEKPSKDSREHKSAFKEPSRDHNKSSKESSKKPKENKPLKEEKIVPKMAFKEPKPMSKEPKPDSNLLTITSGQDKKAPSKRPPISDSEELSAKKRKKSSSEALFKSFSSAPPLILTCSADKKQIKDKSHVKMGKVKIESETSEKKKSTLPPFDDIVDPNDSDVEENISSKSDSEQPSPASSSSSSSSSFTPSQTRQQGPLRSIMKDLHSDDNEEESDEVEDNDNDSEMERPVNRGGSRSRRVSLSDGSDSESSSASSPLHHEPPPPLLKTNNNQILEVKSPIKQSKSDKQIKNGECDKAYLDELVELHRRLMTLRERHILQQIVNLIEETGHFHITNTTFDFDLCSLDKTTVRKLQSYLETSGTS
# Ecoli rRNA inh OD600: second read-out of Ecoli rRNA inh, no call of its own (marks repeat the call); OD600 change, %; measured here: OD600 growth;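 optical density of the mix in the first replicate; 0 = DMSO median and -100 = no signal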
# Ecoli rRNA inh RFP: recorded beside Ecoli rRNA inh, whose call it bears; RFP signal change, %; measured here: RFP humanized mutant strains;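 first replicate; 0 = DMSO median and -100 = no signal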
# Active calls of the source: *; i = inactive; / = no result given; + = active, no number; & = joins results of further samples.
SMILES,FGF22 binding,Ecoli rRNA inh,Ecoli rRNA inh OD600,Ecoli rRNA inh RFP,MLL AF4-AF9 inh
CN(Cc1cn(Cc2cccc(C(F)(F)F)c2)nn1)C1CN(Cc2cn(Cc3cccc(C(F)(F)F)c3)nn2)S(=O)(=O)C1 (centres undefined),i,-37.6,-68.7,-4.6,-0.5
COc1ccc(NC(=O)Nc2ccc3c(c2)C(=O)N([C@@H](C)CO)C[C@@H](C)[C@H](CN(C)Cc2ccccc2)OCCCC[C@H](C)O3)cc1,i,2.6,-3.6,4.2,6.4
C[C@H](CO)N1C[C@H](C)[C@H](CN(C)CC2CC2)OCc2cnnn2CCCC1=O,i,1.2,1.0,-3.5,0.5
C[C@@H]1CN([C@@H](C)CO)C(=O)c2cccc(NS(=O)(=O)c3ccc(F)cc3)c2O[C@H]1CN(C)Cc1ccc(C(F)(F)F)cc1,i,0.6,-3.6,-1.1,-0.5
CCC(=O)Nc1ccc2c(c1)C(=O)N(C)C[C@@H](OC)[C@@H](C)CN(Cc1ccccn1)[C@H](C)CO2,i,-0.3,1.2,0.5,0.0
CO[C@H]1CN(C)C(=O)c2ccc(NC(=O)Nc3ccccc3F)cc2OC[C@H](C)N(C)C[C@H]1C,i,0.1,1.2,-0.3,1.3
C[C@@H]1CN([C@H](C)CO)C(=O)c2cc(Br)cnc2O[C@@H]1CN(C)CC1CC1,i,2.3,9.5,-6.5,-1.7
COc1ccc(C)cc1NC(=O)c1cnc2sccn2c1=O,i,13.4,24.9,1.7,-1.7
C[C@H](CO)N1C[C@H](C)[C@@H](CN(C)C(=O)Nc2ccc(F)cc2)OCCCC[C@H](C)Oc2ccc(NS(=O)(=O)c3cccs3)cc2C1=O,i,0.3,-11.6,6.3,-11.7
CC(C)CNc1ncnc2c1ncn2[C@H]1CN(CCc2ccccc2)C[C@@H](CO)O1,i,1.3,4.0,-0.9,-0.8
C[C@@H]1CN([C@@H](C)CO)C(=O)c2ccccc2-c2ccccc2CO[C@@H]1CN(C)S(=O)(=O)Cc1ccccc1,i,0.6,0.2,1.2,-0.7
COc1ccc2c3c(n(C)c2c1)[C@H](CO)N(C(C)=O)CC31CCN(Cc2nccs2)CC1,i,-0.6,-0.8,1.5,1.6
C[C@H](CO)N1C[C@H](C)[C@@H](CN(C)C(=O)Nc2cccc3ccccc23)Oc2c(NC(=O)c3ccc(-c4nccs4)cc3)cccc2C1=O,i,0.1,-6.7,5.7,1.9
COc1ccccc1Cc1c(-c2cccc(Cl)c2)nc2ccc(C)cn12,i,-21.3,-18.5,5.7,-0.5
CC1(C(=O)NS(=O)(=O)c2cccc(C#N)c2)CCN1C(=O)c1ccccc1 (centres undefined),i,9.1,5.4,1.7,-1.2
O=C(C[C@@H]1CC[C@@H]2[C@H](COC[C@@H](O)CN2C(=O)c2ccc(F)cc2)O1)NCCCN1CCOCC1,i,-0.6,-2.3,33.1,-16.1
CC(C)CC#Cc1cnc2c(c1)C(=O)N([C@@H](C)CO)C[C@H](C)[C@@H](CN(C)Cc1ccccn1)O2,+,-0.8,-0.6,1.1,-0.9
CC(C)C#Cc1ccc([C@@H]2[C@H](CO)N3CCCCN(CC4CC4)C[C@@H]23)cc1,i,1.8,0.7,-0.8,13.4
C[C@@H]1CN([C@H](C)CO)C(=O)c2cccc(NC(=O)c3ccncc3)c2O[C@H]1CN(C)S(=O)(=O)c1cn(C)cn1,i,2.5,4.7,1.4,-2.0
CCCC#Cc1ccc([C@H]2[C@@H](CO)N3CCCCN(S(=O)(=O)c4ccccc4F)C[C@H]23)cc1,i,-48.5,-50.2,0.3,7.0
CC(=NNS(=O)(=O)c1ccc(C)cc1)c1ccccc1,i,-1.4,-8.4,4.1,-0.6
C[C@H](O)C#Cc1cnc2c(c1)C(=O)N([C@H](C)CO)C[C@H](C)[C@H](CN(C)CC1CCOCC1)O2,i,2.8,5.3,-4.2,-6.2
CC(C)CC#Cc1cnc2c(c1)C(=O)N([C@H](C)CO)C[C@H](C)[C@@H](CN(C)C(=O)c1cccnc1)O2,i,2.1,-0.1,0.8,-1.3
C[C@H](NC(=O)[C@@H]1CCCN1C(=O)[C@@H]1CCCN1C(=O)c1ccccc1)c1ccccc1,i,-0.1,12.7,-3.0,-1.9
C[C@H]1CN([C@@H](C)CO)C(=O)Cc2cc(NS(C)(=O)=O)ccc2O[C@@H]1CN(C)C(=O)Nc1ccc(C(F)(F)F)cc1,i,-4.6,-9.7,-2.4,-1.2
COCCNC(=O)C[C@H]1C[C@@H]2c3cc(NC(=O)Nc4ccccc4)ccc3O[C@@H]2[C@@H](CO)O1,i,0.8,-1.9,-3.0,-0.7
CN1c2ccc(C#Cc3cccnc3)cc2[C@H]2[C@H](CCN2C(=O)C2CCCCC2)[C@H]1CO,i,-1.0,-51.9,17.4,1.1
C[C@H]1CN([C@@H](C)CO)C(=O)c2cccc(NC(=O)C3CC3)c2O[C@@H]1CN(C)S(=O)(=O)c1cccs1,i,-1.9,11.1,0.8,0.8
CNC(=O)C[C@@H]1CC[C@H]2[C@@H](COC[C@H](O)CN2C(=O)Nc2ccc(Cl)c(Cl)c2)O1,i,-29.7,-44.7,-4.7,-0.4
COc1cccc(-c2cnc3c(c2)C(=O)N([C@@H](C)CO)C[C@H](C)[C@H](CN(C)Cc2ccccc2)O3)c1,i,3.2,6.5,0.0,0.1
C[C@H]1CN([C@@H](C)CO)C(=O)c2cc(NC(=O)Cc3ccccc3)ccc2O[C@H]1CN(C)S(=O)(=O)c1ccccc1,i,-3.1,-7.5,1.5,-2.6
Cc1cn([C@H]2C[C@H](O)[C@@H](/C=C/C(=O)NCCN3CCOCC3)O2)c(=O)[nH]c1=O,i,2.5,10.9,0.1,-2.9
COCC(=O)N1CC2(C1)[C@@H](c1ccc(-c3ccccc3)cc1)[C@@H](CO)N2C(=O)COC,i,-1.0,-0.7,-0.3,1.4
N#C[C@H]1[C@@H](c2ccccc2-c2ccccc2)[C@H](CO)N1C(=O)Cc1cccnc1,i,-1.0,9.6,-2.8,-0.2
COc1ccc(NC(=O)c2cc(C3CCCCN3C(=O)CCc3ccccc3)on2)c(C)c1 (centres undefined),i,-17.1,-34.1,-3.4,-5.6
C[C@@H]1CN([C@H](C)CO)S(=O)(=O)c2ccc(-c3ccc(C(=O)N(C)C)cc3)cc2O[C@H]1CN(C)C(=O)Cc1ccccn1,i,10.8&-2.6,16.0&5.7,0.0&-4.1,-0.1&-4.6
COc1ccc(CN(C)C[C@@H]2Oc3ccc(NS(=O)(=O)c4ccc(Cl)cc4)cc3CC(=O)N([C@@H](C)CO)C[C@H]2C)cc1,i,-1.2,-9.5,0.6,1.7
CO[C@H]1CN(C)C(=O)c2ccc(NC(=O)Nc3ccccc3F)cc2OC[C@H](C)NC[C@H]1C,i,0.5,2.7,1.0,0.1
O=Cc1c[nH]c2ccc(S(=O)(=O)N3CCCCC3)cc12,i,-3.6,-10.7,-1.4,0.5
CCCN(C)C[C@@H]1Oc2cc(C#Cc3ccccc3F)ccc2S(=O)(=O)N([C@H](C)CO)C[C@@H]1C,i,-3.9,-5.3,2.4,3.0
C[C@H]1CN([C@@H](C)CO)C(=O)c2cc(C#Cc3ccccn3)cnc2O[C@@H]1CN(C)CC1CCOCC1,i,0.9,2.4,-1.4,-1.2
O=C(Cc1ccccn1)N1[C@@H](CO)[C@@H]2c3ccccc3NC[C@@H]21,i,2.3,8.8,-1.8,-0.5
O=C1CN(Cc2ccccc2)C[C@@H]2[C@@H](c3ccc(Br)cc3)[C@@H](CO)N12,i,2.1,7.8,-2.2,2.0
Cc1cc2c(cc1C)-n1nnnc1C(N(C)CCc1ccccc1)C(=O)N2 (centres undefined),i,-52.2,-80.8,-13.3,0.7
Cc1ccc(S(=O)(=O)N(C)C[C@@H]2OCCCC[C@@H](C)Oc3ccc(NS(C)(=O)=O)cc3C(=O)N([C@H](C)CO)C[C@H]2C)cc1,i,-1.7,-8.0,0.5,-2.0
CC1C(=O)N(Cc2cn(CC3CCCCC3)nn2)CCS(=O)(=O)N1Cc1ccc(-c2ccc(Cl)c(Cl)c2)cc1 (centres undefined),/,11.5,19.9,-3.0,-1.1
CC(C)NC(=O)Nc1ccc2c(c1)C(=O)N([C@@H](C)CO)C[C@@H](C)[C@H](CN(C)S(C)(=O)=O)O2,i,0.1,14.0,1.8,-2.2
CC(C)NC(=O)Nc1ccc2c(c1)C(=O)N([C@@H](C)CO)C[C@@H](C)[C@H](CN(C)S(=O)(=O)c1cn(C)cn1)OCCCC[C@H](C)O2,i,4.5,13.6,-2.1,-5.3
C[C@H]1CCCCO[C@H](CN(C)S(=O)(=O)c2ccc(Cl)cc2)[C@@H](C)CN([C@@H](C)CO)C(=O)c2cc(NC(=O)Nc3ccc4c(c3)OCO4)ccc2O1,i,2.3,1.9,-3.2,0.1
COc1cccc(S(=O)(=O)Nc2ccc3c(c2)C(=O)N(C)C[C@@H](OC)[C@H](C)CN(C(=O)Cc2cccnc2)[C@H](C)CO3)c1,i,-0.9,1.9,3.3,-1.9
CC(C)CC(N)c1csc(Nc2ncccn2)n1 (centres undefined),i,23.6,20.3,-1.0,-12.1
CN(C)CCN(C)C1CN(C2CCCC2)S(=O)(=O)C1 (centres undefined),i,27.2,18.1,1.3,1.2
CCC(=O)N1[C@@H]2c3ccc(-c4ccc(F)cc4)c(=O)n3C[C@H]1[C@H](CO)[C@H]2C(=O)N(C)C,i,2.5,-1.4,3.4,-1.2
CN(C)c1cccc(NC(=O)c2ccc(-c3ccc(F)c(F)c3)c3ccoc23)c1,i,-1.7,14.1,9.4,-0.3
CN(C)C(=O)[C@@H]1[C@@H](CO)[C@@H]2Cn3c(ccc(C4=CCCCC4)c3=O)[C@H]1N2Cc1ccccc1,i,-4.8,-9.6,-1.9,0.2
O=Cc1cc2c(cc1[B-](F)(F)F)OCO2,i,12.8,14.1,-3.9,-2.2
COc1ccc(S(=O)(=O)Nc2ccc3c(c2)C(=O)N([C@H](C)CO)C[C@@H](C)[C@H](CN(C)S(=O)(=O)c2cccs2)OCCCC[C@H](C)O3)cc1,i,2.8,3.9,0.5,-1.3
O=C(C[C@@H]1CC[C@@H](NC(=O)C2CCOCC2)[C@@H](CO)O1)Nc1ccc(-c2ccccc2)cc1,i,-6.4,-2.3,1.4,-0.3
CC1(C(=O)Nc2ccccc2)Cc2c(-c3ccc4c(c3)OCO4)ccnc2O1 (centres undefined),i,1.0,-18.5,-2.7,1.5
CCC(=O)N(C)C[C@@H]1Oc2cc(C#Cc3cccnc3)ccc2S(=O)(=O)N([C@@H](C)CO)C[C@H]1C,i,-3.1,-3.5,-4.1,1.8

# Profiles from above. Screens in order: FGF22 binding, Ecoli rRNA inh, Ecoli rRNA inh OD600, Ecoli rRNA inh RFP, MLL AF4-AF9 inh
# COc1ccc(S(=O)(=O)Nc2ccc3c(c2)C(=O)N([C@H](C)CO)C[C@@H](C)[C@H](CN(C)S(=O)(=O)c2cccs2)OCCCC[C@H](C)O3)cc1 is listed with i, 2.8, 3.9, 0.5, -1.3
# C[C@H]1CCCCO[C@H](CN(C)S(=O)(=O)c2ccc(Cl)cc2)[C@@H](C)CN([C@@H](C)CO)C(=O)c2cc(NC(=O)Nc3ccc4c(c3)OCO4)ccc2O1 is listed with i, 2.3, 1.9, -3.2, 0.1
# CC(C)NC(=O)Nc1ccc2c(c1)C(=O)N([C@@H](C)CO)C[C@@H](C)[C@H](CN(C)S(C)(=O)=O)O2 is listed with i, 0.1, 14.0, 1.8, -2.2
# O=C(Cc1ccccn1)N1[C@@H](CO)[C@@H]2c3ccccc3NC[C@@H]21 is listed with i, 2.3, 8.8, -1.8, -0.5
# CN(C)CCN(C)C1CN(C2CCCC2)S(=O)(=O)C1 (centres undefined) is listed with i, 27.2, 18.1, 1.3, 1.2

# Continued:
SMILES,FGF22 binding,Ecoli rRNA inh,Ecoli rRNA inh OD600,Ecoli rRNA inh RFP,MLL AF4-AF9 inh
CCCC#Cc1ccc([C@H]2[C@H](CO)N3CCCCN(S(=O)(=O)CC)C[C@@H]23)cc1,i,0.8,-10.0,5.5,3.5
Cc1noc(C)c1S(=O)(=O)Nc1ccc2c(c1)CC(=O)N([C@H](C)CO)C[C@H](C)[C@H](CN(C)CC1CCCCC1)O2,i,1.4,-5.8,3.4,1.5
COC(=O)C1=C(C)N(C)C(=NCc2ccc3c(c2)OCO3)NC1c1cccc(Cl)c1 (centres undefined),/,10.1,1.8,7.9,2.8
CC(C)CC#Cc1ccc2c(c1)O[C@H](CN(C)C(=O)NC(C)C)[C@@H](C)CN([C@H](C)CO)S2(=O)=O,i,-1.4,-1.2,0.4,-1.0
C[C@@H]1CN([C@H](C)CO)C(=O)c2cc(NC(=O)Nc3ccc4c(c3)OCO4)ccc2O[C@@H](C)CCCCO[C@H]1CN(C)S(=O)(=O)c1ccc(F)cc1,i,2.8,6.8,-0.5,2.1
CO[C@@H](CN(C)C(=O)c1cnccn1)[C@H](C)CN([C@@H](C)CO)S(=O)(=O)c1ccc(F)cc1,i,3.5,13.7,-1.2,-10.4
C[C@@H]1CN([C@@H](C)CO)C(=O)c2cc(NS(=O)(=O)c3ccc(Cl)cc3)ccc2O[C@@H](C)CCCCO[C@@H]1CN(C)S(=O)(=O)c1cn(C)cn1,i,-1.3,-12.8,-1.4,-13.8
CN1c2ccc(-c3ccccc3)cc2[C@@H]2[C@@H](CCN2C(=O)c2cccc(F)c2)[C@@H]1CO,i,-19.2,-42.2,27.1,1.5

# From PubChem

# Only part of the results is shown; the hit share may differ from the screen's.
